Cruzain Triton: inhibitors of Trypanosoma cruzi cruzain with detergent; Potency, µM, for the others: max response, negative = inhibition, usual class: inhibitors; P25779; purified cruzain, Z-FR-AMC fluorescence, 0.01% Triton; 0.43% of 200,000 active;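 note: plate controls were neutral wells for no effect and buffer without enzyme for full effect; nearly all actives have a fitted effect of over 40% in size; top concentration of the series not given in the record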
Target sequence (P25779 123-467 limits assumed): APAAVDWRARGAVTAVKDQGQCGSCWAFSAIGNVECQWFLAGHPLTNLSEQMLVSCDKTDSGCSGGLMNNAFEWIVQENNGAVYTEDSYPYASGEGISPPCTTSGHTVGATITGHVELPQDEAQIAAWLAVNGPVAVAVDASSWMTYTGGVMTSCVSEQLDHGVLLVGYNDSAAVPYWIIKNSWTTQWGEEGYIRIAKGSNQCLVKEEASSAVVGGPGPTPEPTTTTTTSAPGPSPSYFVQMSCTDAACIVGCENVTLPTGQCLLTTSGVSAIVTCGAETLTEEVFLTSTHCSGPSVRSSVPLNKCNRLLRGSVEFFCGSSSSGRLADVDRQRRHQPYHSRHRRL
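Steps: dispense cruzain (1.5 nM final) in acetate buffer pH 5.5 with DTT and 0.01% Triton X-100; pin-transfer compounds; incubate 15 min RT; add Z-FR-AMC (2 uM final); read fluorescence every 30 s, using the 60 s intensity change.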
2A StopGo: FMDV 2A StopGo reporter, luciferase signal. human cells with a luciferase reporter of 2A StopGo recoding; control for the full effect not named in the record. Potency, µM (titrated, usually from 57.9 µM), without a hit: top-dose signal change, negative = less light. 1.2% of 410,000 active. AID 1159524; active = well fitted falling curve with a large enough effect; inconclusive = small, poorly fitted or top-dose-only effect; inactive = no such curve, though single readings can be large or run the other way; tested in HEK293T cells; note: % is set by controls: 0 for no effect and ±100 for the full control effect; nearly all actives have a fitted effect of over 45% in size; luciferase light after 4 h
RE007 growth inh: less growth of the S. pombe RE007 Vpr strain | 0.21% of 360,000 active | S. pombe RE007 Vpr strain, BacTiter-Glo ATP luminescence, 24 h; control for the full effect not named in the record | Potency, µM (highest dose often 92.2 µM), for inactives: at the top dose activity change, negative = less growth; active = well fitted falling curve with a large enough effect; inconclusive = small, poorly fitted or top-dose-only effect; inactive = no such curve, though single readings can be large or run the other way;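 note: % is set by controls: 0 for no effect and ±100 for the full control effect; nearly all actives have a fitted effect of over 50% in size; the assay follows cell death caused by Vpr and the record does not say whether a fall means rescue or toxicity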
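Fission yeast strain RE007, carrying one chromosomally integrated HIV-1 vpr copy, was seeded at OD 0.01 in PMG+AL medium with 23 nL pinned compound. After 24 h at 30 °C and 99% humidity, viability was read by BacTiter-Glo luminescence.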
LASV entry inh: Lassa virus entry inhibition | Lassa virus pseudotype entry inhibition, cell reporter; control for the full effect not named in the record | Potency, µM (highest dose often 37.9 µM), for inactives: top-dose activity change, negative = inhibition, usual class: inhibitors | 1.2% of 300,000 active; active means well fitted inhibition curve with a large enough effect; inconclusive means small, poorly fitted or top-dose-only effect, or effect the other way; inactive means flat fitted curve, though single readings scatter; tested in HEK293 cells; note: % is set by controls: 0 for no effect and ±100 for the full control effect; nearly all actives have a fitted effect of over 50% in size; luciferase read-out
SARS PLpro yeast: blocks SARS-CoV papain-like protease in a yeast assay | 0.19% of 330,000 active | Potency, µM (series often up to 32.9 µM), inactives show at the highest dose activity, positive = growth rescue | S. cerevisiae expressing SARS-CoV PLpro, growth rescue; control for the full effect not named in the record; active means well fitted rising curve with a large enough effect; inconclusive means small, poorly fitted or top-dose-only effect; inactive means no such curve, though single readings can be large or run the other way; note: 0% is about no effect; nearly all actives have a fitted effect of over 55% in size; growth read by luminescence after 48 h
NS1 inh: inhibitors of influenza NS1 protein function; S. cerevisiae slowed by influenza A NS1, growth recovery by OD600; Potency, µM (doses to about 46.1 µM), for inactives: top-dose activity, positive = more growth; 0.4% of 270,000 active; active means well fitted rising curve with a large enough effect; inconclusive means small, poorly fitted or top-dose-only effect; inactive means no such curve, though single readings can be large or run the other way; note: nearly all actives have a fitted effect of over 50% in size
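Read-out: OD600 growth recovery of NS1-expressing budding yeast. Cells grown overnight at 30C in -URA glucose medium, washed, resuspended and diluted 1:100 in 2% galactose assay medium, pH 6.0. Same strain lacking NS1 served as positive control.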
Cruzain noTriton: cruzain (T. cruzi) inhibition without detergent; 2.3% of 200,000 active; purified cruzain, Z-FR-AMC fluorescence, no detergent; P25779; Potency, µM, inactives show max response, negative = inhibition, most hits filed as inhibitors;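 note: plate controls were enzyme without inhibitor for no effect and buffer without enzyme for full effect; nearly all actives have a fitted effect of over 40% in size; top concentration of the series not given in the record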
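Purified cruzain at 1.5 nM, pre-incubated 15 min with compound at room temperature in 100 mM sodium acetate pH 5.5, 5 mM DTT, 0.00005% Triton X-100. Reaction started with 2 uM Z-FR-AMC; AMC fluorescence increase over 60 s gives rate.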
Marburg entry inh: Marburg virus entry inhibition; Marburg virus pseudotyped entry inhibition, cell reporter; control for the full effect not named in the record; about a third of the inactives were read at about 46 µM; Potency, µM (series often up to 37.8 µM), inactives show at the highest dose activity change, negative = inhibition, most hits filed as inhibitors; 1.8% of 300,000 active; active = well fitted inhibition curve with a large enough effect; inconclusive = small, poorly fitted or top-dose-only effect, or effect the other way; inactive = flat fitted curve, though single readings scatter; tested in HEK293 cells; about a fifth of its hits are not listed in these tables; note: % is set by controls: 0 for no effect and ±100 for the full control effect; luciferase read-out
An asterisk follows results filed as active; ? = inconclusive; . = no result given; & = joins results of further samples; [ ] = another dose, or the depositor's remark. Unless noted, calls come from the whole dose curve; as a rule, active = well fitted curve in the direction sought with a large enough effect; inconclusive = small, poorly fitted or top-dose-only effect, or another doubt; inactive = no such curve, though single readings can be large; an effect the other way counts as inactive or inconclusive. Potency is the fitted concentration of half-maximal effect.

SMILES	Cruzain Triton	2A StopGo	RE007 growth inh	LASV entry inh	SARS PLpro yeast	NS1 inh	Cruzain noTriton	Marburg entry inh
COc1cc(NC(=O)c2cccc(COCC(F)(F)C(F)F)c2)cc(OC)c1OC	-4.4%	?	64%	?	23%	1%	?	?
CC(/C=N/NC(=O)c1cccc([N+](=O)[O-])c1)=C\c1ccccc1	9.1%	45%[activator]	0%	?	4%	?	?	-9%
COc1ccc(-n2c(SCC(=O)Nc3sc4c(c3C#N)CCCC4)nnc2-c2ccccc2OC)cc1	-1.7%	11%	9%	-23%	3%	?	25µM*	?
CCOC(=O)c1cccc(NC(=O)CCc2c(C)nn(-c3ccc(N4CCCCC4)nn3)c2C)c1	-6.3%	-2%	.	?	.	.	?	.
Cc1ccc(/C=C2\SC(=S)N(C(Cc3ccccc3)C(=O)O)C2=O)cc1 (stereo not given)	-21%	-13%	-10%	-1%	-47%	-16%	?	9%
Nc1nnc(SCC(=O)OCC(=O)c2ccccc2Br)s1	.	-13%	-11%	3%	0%	.	.	0%[46.1 µM]
Cc1ccc(C(=O)C(OC(=O)CCC(=O)Nc2cccc(C)c2)c2ccccc2)cc1 (stereo not given)	-8.2%	-13%	-13%	0%	7%	-2%	-5%	1%
COc1ccc(CNc2oc(-c3ccccc3)nc2C#N)cc1	-10%	25%	22%	.	-25%	-56%	10%	.
COc1ccc(-c2nnnn2C)cc1S(=O)(=O)NCc1ccccc1	0.5%	.	4%	3%	1%	16%	-3%	8%
CCCn1c(CCNc2nc(-c3ccc(Cl)c([N+](=O)[O-])c3)cs2)nc2cc(Cl)c(Cl)cc21	.	-10%	-7%	.	-4%	8.9µM*	.	.

Some of the entries so far, with bars between the fields.
smiles | Cruzain Triton | 2A StopGo | RE007 growth inh | LASV entry inh | SARS PLpro yeast | NS1 inh | Cruzain noTriton | Marburg entry inh
Nc1nnc(SCC(=O)OCC(=O)c2ccccc2Br)s1 | . | -13% | -11% | 3% | 0% | . | . | 0%[46.1 µM]
Cc1ccc(C(=O)C(OC(=O)CCC(=O)Nc2cccc(C)c2)c2ccccc2)cc1 (stereo not given) | -8.2% | -13% | -13% | 0% | 7% | -2% | -5% | 1%
COc1ccc(CNc2oc(-c3ccccc3)nc2C#N)cc1 | -10% | 25% | 22% | . | -25% | -56% | 10% | .
COc1ccc(-c2nnnn2C)cc1S(=O)(=O)NCc1ccccc1 | 0.5% | . | 4% | 3% | 1% | 16% | -3% | 8%

(list continues)
SMILES	Cruzain Triton	2A StopGo	RE007 growth inh	LASV entry inh	SARS PLpro yeast	NS1 inh	Cruzain noTriton	Marburg entry inh
CC(=O)NC1(c2ccccc2)CCN(Cc2nnnn2C(C)(C)C)CC1	5.4%	3%	21%	-9%	-4%	0%	7%	19%[46.1 µM]
CS(=O)(=O)c1ccc2nc(NC(=O)CCC(=O)c3cccs3)sc2c1	-7.5%	16%	-6%	8%	4%	21%	?	-7%
COc1ccc(NC(=O)CC2CC3CCC2C3)cn1 (stereo not given)	.	8%	15%	-9%[46.1 µM]	-9%	-3%	.	6%[46.1 µM]
Cc1c(C(=O)O)sc(S(=O)(=O)N2CCN(C(=O)CC(C)c3ccccc3)CC2)c1C(=O)O (stereo not given)	.	-6%	-14%	-3%	.	.	.	3%
Cc1c(Cc2ccccc2)c(=O)oc2c(CN(C)C)c(O)c(Cl)cc12	20µM*	?	-14%	-15%	0%	-11%	?	-9%
COc1cc2[nH]c(=O)n(CCC(=O)NC3CCCC3)c(=O)c2cc1OC	-3.3%	-8%	?	0%	1%	-8%	24%	0%
COC(=O)c1ccc(CN2CCCC(CCC(=O)NCc3ccc(C)o3)C2)cc1 (stereo not given)	.	-7%	1%	-4%	-1%	2%	.	-11%[46.1 µM]
COc1cccc(/C=C/C(=O)c2ccc3c(c2)OCCO3)c1OC	.	-1%	-14%	?	-8%	-8%	.	?
Cc1cccc2cc(C#N)c(N3CCN(C)CC3)nc12	2.8%	-1%	-9%	-4%	-10%	-11%	-5%	-16%
CCOc1ccc(CCNC(=O)c2cc(=O)[nH]c3ccc(S(=O)(=O)N4CCCCC4C)cc23)cc1OCC (stereo not given)	0.0%	-15%	.	-3%[46.1 µM]	.	.	?	.

Structures above that contain a Cl atom (2):
SMILES	Cruzain Triton	2A StopGo	RE007 growth inh	LASV entry inh	SARS PLpro yeast	NS1 inh	Cruzain noTriton	Marburg entry inh
CCCn1c(CCNc2nc(-c3ccc(Cl)c([N+](=O)[O-])c3)cs2)nc2cc(Cl)c(Cl)cc21	.	-10%	-7%	.	-4%	8.9µM*	.	.
Cc1c(Cc2ccccc2)c(=O)oc2c(CN(C)C)c(O)c(Cl)cc12	20µM*	?	-14%	-15%	0%	-11%	?	-9%

Continued:
SMILES	Cruzain Triton	2A StopGo	RE007 growth inh	LASV entry inh	SARS PLpro yeast	NS1 inh	Cruzain noTriton	Marburg entry inh
O=C(c1ccc(CS(=O)c2ccccc2Cl)o1)N1CCOCC1 (stereo not given)	.	7%	5%	.	2%	6%	.	.
CC(C)[C@H](NC(=O)c1ccco1)C(=O)N(C)Cc1ccc(C(F)(F)F)cc1	.	1%	4%	-18%[46.1 µM]	1%	-11%	.	?
C/C(=N\NC(=O)c1nnn(-c2nonc2N)c1-c1cccs1)c1cccnc1	.	-4%	10%	?	2%	11%	.	?
COc1ccc(-c2nnc(NC(=O)c3ccccc3C)o2)cc1	.	-2%	-13%	.	-5%	-58%	.	.
COc1ccc2c(c1)c1ncn(CC3CCCO3)c(=O)c1n2C (stereo not given)	.	-2%	1%	18%	-1%	-3%	.	5%[14.2 µM]
Cc1cccc(NC(=O)CN2C(=O)S/C(=C\c3cccn3-c3cccc(C(=O)O)c3)C2=O)c1	.	-5%	4%	5%	0%	2%	.	-2%[46.1 µM]
CSc1ccccc1C(=O)N1CCCCC1	.	-19%	-13%	.	0%	-2%	.	.
Cc1cc(C)c(C(=O)COC(=O)CN2C(=O)NC3(CCCC3)C2=O)cc1C	.	-21%	10%	-11%	1%	.	.	?
O=C(Nc1ccccc1F)C1(c2ccccc2)CC1(Cl)Cl (stereo not given)	-5.5%	-18%	3%	-9%	-31%	-20%	-9%	-9%
COc1ccc(C(=O)C2CCCN(S(=O)(=O)c3cccc(C)c3)C2)c(C)c1 (stereo not given)	.	-20%	-10%	?	0%	12%	.	?
Fc1ccc(/C=C2\CCCC3=C2Nc2ncnn2C3c2ccc(F)cc2)cc1 (stereo not given)	-5.7%	?	90%	?	-7%	14%	2%	?
Cc1nc2sccn2c1-c1nc(-c2cc3ccccc3o2)cs1	-0.8%	-14%	-5%	12%	-5%	-5%	-1%	?
COc1ccc(C23CC4CC(CC(C(=O)O)(C4)C2)C3)c(F)c1	.	-7%	-10%	.	-3%	-67%	.	.
N#Cc1cccc(C#N)c1Oc1ccc(N)cc1	.	-26%	5%	.	-1%	4%	.	.
N#Cc1cc[n+](CC(=O)c2ccc(NC(=O)c3ccccc3)cc2)cc1	.	1%	7%	.	0%	10%	.	.
Nc1c(N(Cc2ccccc2)C(=O)COc2cccc(Cl)c2)c(=O)[nH]c(=O)n1Cc1ccccc1	.	?	3%	-20%	-7%	.	.	-23%
CCNc1ccc(C(=O)OCC(=O)NCc2ccc(C)cc2)cc1[N+](=O)[O-]	-3.9%	-10%	4%	-24%	-14%	13%	2%	5%
Cc1ccc(S(=O)(=O)NCC(c2ccc(N(C)C)cc2)N2CCc3ccccc32)cc1C (stereo not given)	-1.0%	30%	.	-11%[46.1 µM]	.	.	1%	.
COc1cc2c3nc4n(c(=O)c3n(CC(=O)N3CCCC3)c2cc1OC)CCS4	.	-3%	0%	-3%	.	.	.	1%[46.1 µM]
CCN1CCN(CCCNC(=O)C2c3ccccc3C(=O)N(c3ccc(OC)cc3)C2c2ccc(OC)cc2)CC1 (stereo not given)	.	-6%	-5%	2%[46.1 µM]	-3%	-4%	.	?
Cn1c(SCC(=O)NC2CC2)nnc1C(F)(F)F	3.1%	.	-10%	2%	3%	-4%	5%	-1%
Cn1c(N2CCN(c3ccccn3)CC2)nc2c1c(=O)n(Cc1ccc(Cl)cc1)c(=O)n2C	-2.2%	20µM*	-1%	0%	-2%	13%	14%	2%&10%
C/C(=N\Nc1ccc(Cl)cc1)c1ccccn1	-10%	54%[activator]	3%	107%[14.3 µM]	-24%	-53%	-1%	?
CNC(=O)c1c(NC(=O)c2ccco2)sc2c1CCC2	.	15%	-16%	.	-4%	-24%	.	.
CN(C)S(=O)(=O)c1cccc(NC(=O)c2ccc(Sc3nncn3C)c([N+](=O)[O-])c2)c1	.	-5%	4%	.	0%	-15%	.	.
S=C(NCc1ccccc1)Nc1ccc2cn[nH]c2c1	.	12%	33%	-5%[46.1 µM]	-1%	1%	.	1%[46.1 µM]
COc1ccc(Cl)cc1NC(=O)CSc1nnc2[nH]c(=O)cc(C)n12	0.1%	-14%	.	18%[46.1 µM]	.	.	19%	.
Cc1cccc(NC(=S)N2CCN(c3ccccc3)CC2)c1	.	8%	10%	?	2%	3%	.	-17%[46.1 µM]
CC(=O)N1CCN(C(=O)Nc2cccc(C(F)(F)F)c2)CC1	4.1%	-12%	-4%	5%	6%	-6%	5%	-9%
O=C(c1ccc(Br)o1)N(c1ccc(Br)cc1)C1C=CS(=O)(=O)C1 (stereo not given)	5.8%	-13%	3%	-18%	-2%	-4%	-12%	-5%
Cc1nn(C(C)C(=O)NCCN2CCCC2)c(=O)c2c1sc1ccccc12 (stereo not given)	.	5%	12%	-4%[46.1 µM]	-7%	12%	.	?
Cc1cc(C)n(-c2nc(N(C)C)nc(N3CCOCC3)n2)n1	7.1%	-3%	-5%	-9%	21%	1%	7%	-15%
COc1ccc(S(=O)(=O)Nc2ccc(F)cc2)cc1N(C)S(=O)(=O)c1ccc(Cl)cc1	-3.4%	.	12%	?	?	5%	20µM*	21µM*
O=C(NC1CCN(Cc2ccccc2)CC1)c1cccc(S(=O)(=O)Nc2cc(C(F)(F)F)ccc2Cl)c1	-3.6%	-28%	.	?	-2%	-13%	14%	-30%

Compounds as they come; overall some 4.5% were active at least once.
